# RecA intein inh: Mtb RecA intein splicing inhibitors, primary screen, biochemical, fluorescence, HTS; cell-free RecA intein splicing; inhibition, %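 (about 9 µM by stock and volumes)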; Protein RecA (Mycobacterium tuberculosis (strain ATCC 25618 / H37Rv)), P9WHJ3; AID 2221, 2009; 290,000 compounds, 0.75% hits; in the data active = inhibition above about 30%; inconclusive = no clear call, values can overlap the other calls;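 note: 0% = vehicle wells and 100% = reference inhibitor control wells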
# Target sequence (P9WHJ3 whole entry, looked up): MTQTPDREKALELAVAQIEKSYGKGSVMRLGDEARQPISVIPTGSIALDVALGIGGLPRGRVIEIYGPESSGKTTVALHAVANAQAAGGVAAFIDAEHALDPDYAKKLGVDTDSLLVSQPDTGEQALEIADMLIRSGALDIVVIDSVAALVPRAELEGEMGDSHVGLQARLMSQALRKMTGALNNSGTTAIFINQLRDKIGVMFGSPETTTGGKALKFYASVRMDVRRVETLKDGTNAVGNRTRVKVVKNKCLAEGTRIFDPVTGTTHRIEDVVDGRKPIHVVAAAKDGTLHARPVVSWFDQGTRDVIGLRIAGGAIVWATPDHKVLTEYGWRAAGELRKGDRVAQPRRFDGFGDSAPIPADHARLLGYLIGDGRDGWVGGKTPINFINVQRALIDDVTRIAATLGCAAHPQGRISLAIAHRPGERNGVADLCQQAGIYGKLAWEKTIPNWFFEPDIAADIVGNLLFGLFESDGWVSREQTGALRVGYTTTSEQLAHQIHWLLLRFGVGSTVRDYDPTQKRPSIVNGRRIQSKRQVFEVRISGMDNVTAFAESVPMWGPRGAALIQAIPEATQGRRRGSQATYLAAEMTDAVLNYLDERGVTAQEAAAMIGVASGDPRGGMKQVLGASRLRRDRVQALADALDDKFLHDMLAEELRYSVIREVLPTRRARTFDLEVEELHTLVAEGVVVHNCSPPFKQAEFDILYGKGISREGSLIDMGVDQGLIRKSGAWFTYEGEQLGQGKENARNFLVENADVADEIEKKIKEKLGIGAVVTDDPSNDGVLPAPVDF
# Mtb growth: M. tuberculosis H37Rv growth inhibitors, H37Rv strain (AID 1626) | M. tuberculosis H37Rv growth inhibition; higher % means a stronger effect | inhibition, % at 10 µM; hits with a dose series show IC50 in µM | 220,000 compounds, 0.95% hits;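 active = confirmed in a dose series; inconclusive = inhibition above 80% but not taken into the dose series; inactive = below 80% or under 30% at every dose of the series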;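 note: bacteria incubated seven days before Alamar blue readout; 0% = bacteria only wells and 100% = bacteria with antibiotic wells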
# Arbovirus inh: antivirals against arbovirus infection, primary screen, cell-based, full library, 10K replicate subset. AID 1251, 2008. 200,000 compounds, 0.37% hits. inhibition, % at 10 µM. arbovirus infection cell-based antiviral screen;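 active = inhibition from about 30%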;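 note: bluetongue infection of BSR cells; cell survival read as ATP light after 72 h; 0% = infected wells without compound and 100% = uninfected wells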
# Mtb betalactam: beta-lactam sensitization of Mtb H37Rv, H37Rv. M. tuberculosis H37Rv growth with meropenem, percent inhibition; hits of this screen are not shown here. 330,000 compounds, 0.27% hits. inhibition, % at 25 µM;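 active = about 74% or more and at least 40 points above the plate without the antibiotic, then above 30% in a dose series; inconclusive = first-round hits that could not be retested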;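 note: growth measured after seven days incubation then overnight dye step; 0% = bacteria only wells and 100% = bacteria with antibiotic; twin plates without the antibiotic show which effects depend on it; some results filed as inactive read as strong as hits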
# YopH inh: YopH tyrosine phosphatase inhibitors, primary screen, biochemical, fluorescence Ex485/Em525; YopH tyrosine phosphatase [Yersinia enterocolitica]; inhibition, %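 (about 10 µM by stock and volumes)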; 140,000 compounds, 0.16% hits; AID 898, 2007;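 active = inhibition of 50% or more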;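 note: controls were vehicle for no effect and minimum signal wells for full effect; inactives centre near -20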
# Active calls of the source: *; ? = inconclusive; nt = no result given. These rows are one share of the data, so the mix of outcomes need not match the whole.
# Start of the listing, in advance, 10 compounds:
SMILES,RecA intein inh,Mtb growth,Arbovirus inh,Mtb betalactam,YopH inh
O=[N+]([O-])c1cccc(S(=O)(=O)Nc2ccc(-c3ccc(N4CCCC4)nn3)cc2)c1,0.5,nt,nt,-3.2,nt
CN(C)c1ccc(-c2n(C)c3ccccc3[n+]2C)cc1,5.4,-6.2%,5.7,-7.0,-22.8
Cc1cccc(Cn2c(C)c(C)c3cc(C(=O)NCCN4CCOCC4)ccc32)c1,4.9,nt,nt,1.2,nt
CCOc1ccc(NC(=O)C2CCN(S(=O)(=O)c3c(C)noc3C)CC2)cc1,-0.6,nt,nt,2.3,nt
COc1cc(=O)[nH]c(SC(C)C(=O)Nc2cc(C)on2)n1 (centres undefined),0.4,nt,nt,-7.8,nt
Cc1nc(-c2ccc(Cl)cc2)sc1C1(C)CC(c2ccccc2F)=NO1 (centres undefined),1.6,-8.5%,nt,-1.4,nt
CC1C(c2cccs2)=[N+]([O-])C(C)(C(=O)c2ccc(F)cc2)N1O (centres undefined),-1.3,-8.0%,nt,0.4,-35.8
Cc1nc(-c2ccncc2)nc(NCCNc2ncccc2C(F)(F)F)c1Cl,-0.4,5.0%,nt,6.9,nt
CCc1ccccc1N(CC(=O)O)S(C)(=O)=O,-0.3,5.7%,-3.5,-2.6,-19.0
COc1ccccc1/C=N/NC(=S)NCc1ccco1,2.8,-0.4%,nt,14.8,nt

# The list itself, from the first entry:
SMILES,RecA intein inh,Mtb growth,Arbovirus inh,Mtb betalactam,YopH inh
O=[N+]([O-])c1cccc(S(=O)(=O)Nc2ccc(-c3ccc(N4CCCC4)nn3)cc2)c1,0.5,nt,nt,-3.2,nt
CN(C)c1ccc(-c2n(C)c3ccccc3[n+]2C)cc1,5.4,-6.2%,5.7,-7.0,-22.8
Cc1cccc(Cn2c(C)c(C)c3cc(C(=O)NCCN4CCOCC4)ccc32)c1,4.9,nt,nt,1.2,nt
CCOc1ccc(NC(=O)C2CCN(S(=O)(=O)c3c(C)noc3C)CC2)cc1,-0.6,nt,nt,2.3,nt
COc1cc(=O)[nH]c(SC(C)C(=O)Nc2cc(C)on2)n1 (centres undefined),0.4,nt,nt,-7.8,nt
Cc1nc(-c2ccc(Cl)cc2)sc1C1(C)CC(c2ccccc2F)=NO1 (centres undefined),1.6,-8.5%,nt,-1.4,nt
CC1C(c2cccs2)=[N+]([O-])C(C)(C(=O)c2ccc(F)cc2)N1O (centres undefined),-1.3,-8.0%,nt,0.4,-35.8
Cc1nc(-c2ccncc2)nc(NCCNc2ncccc2C(F)(F)F)c1Cl,-0.4,5.0%,nt,6.9,nt
CCc1ccccc1N(CC(=O)O)S(C)(=O)=O,-0.3,5.7%,-3.5,-2.6,-19.0
COc1ccccc1/C=N/NC(=S)NCc1ccco1,2.8,-0.4%,nt,14.8,nt
Oc1ccc(C(=C(Cl)Cl)c2ccc(O)cc2)cc1,24.4,nt,nt,4.2,nt
c1cc2cc(-c3c(-c4ccc5c(c4)OCO5)noc3-c3ccsc3)ccc2[nH]1,1.0,nt,nt,-17.9,nt
CC1CCCCN1Cc1ccc(-c2nnn(CC(=O)NC3CCCCC3)n2)cc1 (centres undefined),0.3,-4.9%,-8.3,0.0,-4.8
O=C(COC(=O)c1ccccn1)Nc1ccc2c(c1)OCO2,-5.3,-9.9%,-4.0,6.6,nt
O=C(CSc1nnc(SCc2ccccc2Cl)s1)N/N=C/c1ccc(C(=O)O)cc1,3.2,-3.4%,nt,-6.2,nt
Cc1ccc2[nH]c3c(c2c1)CN(C(=O)CN1CCCc2ccccc21)CC3,-5.1,-16.5%,7.6,-0.9,3.0
CCOC(=O)C1CCCN(C(=O)c2[nH]c3ccc(OC)cc3c2C)C1 (centres undefined),1.0,nt,nt,2.5,nt
COc1ccc(C2(c3ccc(OC(C)=O)cc3OC(C)=O)CC(c3ccccc3)NC(=S)N2)cc1 (centres undefined),nt,2.6%,6.2,1.1,nt
C=CCN(c1ccccc1)S(=O)(=O)c1cc2c(cc1C)NC(=O)CO2,4.8,nt,nt,?,nt
CCCCN(CCCNC(=O)CN1C(=O)COc2ccc(S(=O)(=O)N3CCC(C)CC3)cc21)Cc1ccccc1,-0.5,nt,nt,4.6,nt
CCOC(=O)C1CCN(S(=O)(=O)c2ccc(NC(=O)c3ccco3)cc2)CC1,-0.2,nt,nt,?,nt
CC(=O)c1ccc(-c2ccc(Cn3c(C)nc4cc(N)c(C)nc43)cc2)cc1,-1.4,0.7%,-6.9,5.0,nt
O=C(COc1ccccc1)N1CCN(C(=O)c2ccc([N+](=O)[O-])cc2)CC1,-1.7,-2.3%,3.0,-5.2,nt
Cc1ccc(CNC(=O)Cc2ccc(Br)cc2)cc1,2.1,nt,nt,7.3,nt
COc1ccc(CNC(=O)C(OC(=O)c2ccco2)c2ccccc2F)cc1 (centres undefined),3.7,nt,nt,12.3,nt
CC1=C(C)CC(C(=O)NNC(=O)c2csc(C)c2C)C(C(=O)O)C1 (centres undefined),-3.1,-4.3%,7.8,7.4,9.5
CC12CCC(=O)N1C(C(=O)Nc1cc(Cl)ccc1N1CCOCC1)CS2 (centres undefined),-0.1,nt,nt,-9.5,nt
Cc1nc2c(ccc3nc(NC(=O)c4ccc5c(c4)OCCO5)sc32)s1,-2.4,10.9%,18.2,3.7,-16.1
Cc1cc[n+](-c2[nH]c(=O)sc2/C=N/NC([S-])=Nc2ccccc2)cc1C,-1.9,-0.8%,-8.2,-4.0,11.6
Cc1ccccc1/C=N/n1c(-c2cc(-c3ccccc3)n[nH]2)n[nH]c1=S,-1.8,-11.6%,nt,-2.2,nt
Brc1ccc(-c2nc(-c3cccnc3)no2)o1,-0.5,-0.5%,2.4,-3.8,-9.6
COc1ccc(NC(=O)c2cc(-c3ccco3)on2)c(OC)c1,2.1,nt,nt,-0.3,nt
O=C1CC(Sc2ncccc2C(=O)O)C(=O)N1 (centres undefined),-5.9,-1.6%,-1.8,-8.2,nt
CCNc1nc(NCC)n2c(SC(C(=O)Nc3cc(Cl)cc(Cl)c3)c3ccccc3)nnc2n1 (centres undefined),-1.5,10.6%,-39.7,-3.1,-16.7
COc1cc(CNC(C)C23CC4CC(CC(C4)C2)C3)cc(OC)c1OC (centres undefined),-2.6,nt,nt,4.8,nt
CCCC1(C(=O)OC)NC(c2ccco2)C2C(=O)N(c3ccc(C)cc3)C(=O)C21 (centres undefined),1.4,-8.2%,2.7,-0.1,-32.8
COc1ccc(C(=O)Nc2nnc(S(=O)(=O)N3CCCCCC3)s2)cc1OC,-0.5,nt,nt,7.3,nt
COc1ccccc1-n1c(C)cc(C=O)c1C,-3.4,10.3%,3.5,-4.1,6.2
CC(=O)N1CCc2cc(S(=O)(=O)CCC(=O)NCCc3ccc(C)cc3)ccc21,0.1,nt,nt,-5.1,nt
CCOC(=O)c1ccc(N(C(=O)c2cnccn2)C(C(=O)NC2CCCCC2)c2cn(C)nc2C)cc1 (centres undefined),1.2,-12.0%,5.2,-0.1,-45.0
CCn1c(=O)n(CC)c2cc(N3CCCC3)c(NC(=O)c3cc(Br)ccc3OC)cc21,23.9,nt,nt,84.8,nt
COc1ccc(S(=O)(=O)N(CC(=O)NC(C)C)Cc2ccccc2)cc1,0.1,4.8%,0.3,-9.8,-5.9
COc1ccc2c(-c3ccccc3)cc(SCC(=O)N(C)C3CCS(=O)(=O)C3)nc2c1 (centres undefined),-0.3,6.0%,-16.7,9.2,1.0
c1ccc(-c2noc(-c3ccncc3)n2)nc1,-0.3,-5.4%,-9.5,-10.5,-16.5
COc1ccc(NC(C)C(=O)N/N=C/c2ccccc2OCc2cccc(Br)c2)cc1 (centres undefined),0.3,6.5%,3.3,0.4,-32.5
O=C(CCc1nc2ccccc2[nH]1)Nc1ccccc1F,2.4,-3.4%,-0.9,3.5,nt
CCOc1ccc(CCNC(=O)COC(=O)COc2ccc(Cl)cc2)cc1OCC,-1.3,nt,nt,-8.0,nt
CC(C)Oc1cccc(C(=O)C2CCCN(Cc3cnn(C(C)C)c3)C2)c1 (centres undefined),4.0,-22.1%,6.5,-3.4,nt
Cc1cc(C(=O)N(C)C2CCCCC2)no1,-1.0,nt,nt,-11.8,nt
COc1ccc(/C(C)=N/NC(=O)OC(C)(C)C)cc1[N+](=O)[O-],-1.2,-5.4%,nt,-6.3,nt
O=C(/C=C/C(=O)NCc1cccs1)NCc1cccs1,-2.3,-6.2%,nt,-0.3,nt
COc1ccc(CN=Cc2c(C(F)(F)F)[nH][nH]c2=O)cc1,-4.3,-4.6%,2.0,10.4,3.4
CN(C)S(=O)(=O)c1cccc(NC(=O)c2cncc(Br)c2)c1,-4.9,2.0%,-1.7,3.3,-22.2
O=C(CCN1C(=O)c2ccccc2S1(=O)=O)Nc1cc(Cl)ccc1Cl,-0.2,nt,nt,-8.7,nt
Cc1ccc(Nc2nc(N)nc(CN3CCN(c4ccccc4)CC3)n2)cc1Cl,0.0,?,-19.0,2.9,-9.8
COc1cc2[nH]c(=O)n(Cc3ccc(C(=O)NC4CCN(Cc5ccccc5)CC4)cc3)c(=O)c2cc1OC,0.3,11.1%,-29.8,43.2,nt
CCOC(=O)c1c(C)c(C(=O)Nc2ccccc2)c(C)n1CC,2.6,nt,-3.7,15.3,-39.6
O=C(NC1CCCCC1)C(c1ccncc1)N(CC1CCCO1)C(=O)C(F)(F)F (centres undefined),-0.9,3.0%,9.4,-5.5,-59.4
O=C(O)c1ccc(S(=O)(=O)c2ccc3c(c2)C(=O)N(NC(=O)c2ccc(O)cc2)C3=O)cc1,-0.7,-1.2%,-4.1,-0.9,nt
CCCCc1ccc(N=N/C(C(=O)Nc2cc(OC)c(NC(C)=O)cc2OC)=C(/C)O)cc1,-1.5,15.6%,12.4,10.4,-14.6
# (listing goes on)
SMILES,RecA intein inh,Mtb growth,Arbovirus inh,Mtb betalactam,YopH inh
O=S(=O)(NCc1ccncc1)c1ccc(S(=O)(=O)NCC2CCCO2)cc1 (centres undefined),2.7,4.0%,1.8,-0.5,-44.8
Cc1ccc(NC(=S)c2ccc(N(C)C)cc2)cc1,0.0,7.3%,-8.6,-1.2,-17.9
CCN(C(=O)c1nn(-c2ccc(OC)cc2)c(=O)c2c1c1ccccc1n2C)c1ccc(OC)cc1,-2.7,-5.3%,-9.9,1.6,nt
O=C1CC(C(=O)N(CC2CCCO2)C(C(=O)NC2CCCCC2)c2ccncc2)CS1 (centres undefined),-1.9,2.0%,-3.4,-4.3,28.3
COc1ccc(CC(=O)Nc2ccc3c(C(F)(F)F)cc(=O)oc3c2)cc1OC,-3.9,?,4.3,99.5,-20.7
O=C(/C=C/c1ccc2c(c1)OCO2)NC1CCCC1,-7.2,nt,nt,6.9,nt
CCNC(=O)CCc1nc(-c2ccc(C)cc2)no1,-2.1,-2.7%,nt,2.7,nt
CCCCN(CC)Cc1ccc(CNC(=O)Nc2ccc(OCC)cc2)o1,-0.7,-9.1%,-2.4,-6.0,1.2
CN(C)c1ccc(/C=N/NC(=O)CNC(=O)/C=C/c2ccccc2)cc1,-1.5,nt,nt,-8.2,nt
COC(=O)C1=C(C)NC(C)=C(C(=O)OC)C1c1ccc2ccccc2n1,-1.4,-4.8%,-9.0,9.4,-38.1
O=C(Cn1cnc2ccccc21)Nc1ccc(SC(F)F)cc1,2.6,6.8%,24.3,1.9,nt
CC(NC(=O)Cn1cnc([N+](=O)[O-])n1)c1ccccc1 (centres undefined),nt,-6.3%,11.0,4.0,-36.4
CCCCNc1oc(-c2ccc(OC)cc2)nc1S(=O)(=O)c1ccccc1,nt,-11.3%,-7.9,29.9,0.3
CC(=O)c1ccccc1OCC(O)CN1CCN(C(c2ccccc2)c2ccccc2)CC1 (centres undefined),2.9,7.75µM*,-22.7,1.1,1.2
COc1ccc(CNC(=O)C2CCCN2CCc2ccccc2)cc1OC (centres undefined),1.7,3.1%,2.7,-7.2,nt
COc1cc(Cl)c(C)cc1NC(=O)CSc1ccc(NC(C)=O)cc1,-0.5,4.3%,-0.8,-0.1,-1.6
Cc1c(CCOC(=O)C23CC4CC(CC(C4)C2)C3)sc[n+]1Cc1ccccc1,-1.5,17.0%,-13.4,49.4,-11.6
COC(C[C@H](O)C[C@@H](O)[C@@H](C)OCc1ccccc1)OC,-3.0,-13.4%,nt,nt,nt
Cc1ccccc1CS(=O)(=O)CC(O)CN1CCCC1=O (centres undefined),2.2,nt,nt,-6.3,nt
NS(=O)(=O)c1ccc(NC(=O)CSc2nc(Nc3ccccc3)nc(N3CCOCC3)n2)cc1,1.5,nt,nt,1.1,nt
O=C(c1cc(COc2ccc(F)cc2F)on1)N1CC[C@@H]2CCCC[C@H]2C1,4.8,nt,nt,?,nt
